A488 fluor = qHTS Assay for Spectroscopic Profiling in A488 Spectral Region; compound autofluorescence, A488 spectral region, dye equivalency; active compounds read high; max dye equivalency, M; 59,000 tested, 0.1% active; active = above 10 nM dye equivalent; inconclusive = 1 to 10 nM; inactive = 1 nM or less; about half of its hits are not listed in these tables;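 further: highest value over a series up to 38 µM; compound alone in buffer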
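Readout is A488 dye-equivalent concentration, calibrated by a per-plate six-point Alexa 488 series. Compounds in 100 mM Tris buffer pH 8.0 were incubated 15 min at room temperature. Plates were imaged using 480 nm excitation/540 nm emission filters.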
Resorufin autofl = qHTS Assay for Spectroscopic Profiling in Resorufin Spectral Region | AID 588, 2007 | max dye-equivalent concentration, M | Compound fluorescence, resorufin region 547/598 nm, buffer; active compounds read high | 59,000 tested, 0.04% active; active = above 10 nM dye equivalent; inconclusive = 1 to 10 nM; inactive = 1 nM or less; a few of its hits are not listed in these tables; further: highest value over a series up to 38 µM
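Compounds in 100 mM Tris, pH 8.0, incubated 15 min at room temperature, then fluorescence read at 547 nm excitation/598 nm emission. Signal converted to dye-equivalent concentration via an on-plate six-point resorufin standard curve, per compound concentration.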
AID923 = qHTS Assay for Allosteric/Competitive Inhibitors of Caspase-1: Spectroscopic Profiling in AFC Spectral Region. compound fluorescence, AFC spectral region (405/520 nm); almost no hit is shown here. Potency, µM (highest dose often 57.5 µM), for inactives: top-dose fluorescence increase, actives largely listed as activators. 75,000 tested, 1.1% active. AID 923, 2007; active means well fitted activation curve with a large enough effect; inconclusive means small, poorly fitted or top-dose-only effect;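 further: potency means the concentration at half of the fitted maximal effect; 0% is about no effect; scaled to a free AFC standard on each plate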
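Titrations up to 57 uM read every 20 sec for 3 min (405/520 nm) with 50 nM caspase 1 and 5 uM Ac-WEHD-AFC, pH 7.5 HEPES buffer. Fluorescence-vs-time intercept gave baseline, scaled against on-plate AFC standard.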
A647 fluor = qHTS Assay for Spectroscopic Profiling in A647 Spectral Region. 59,000 tested, under 10 active. Compound fluorescence, A647 channel (570/671 nm), Tris buffer. max dye-equivalent concentration, M; active means above 1 µM dye equivalent; inconclusive means 0.1 to 1 µM; inactive means 0.1 µM or less;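 further: values scaled relative to a standard on each plate; highest value over a series up to 38 µM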
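Fluorescence read (570 nm ex, 671 nm em) after 15 min RT incubation of compounds in 100 mM Tris buffer, pH 8.0; values expressed as dye-equivalent concentration against a six-point A647 standard series on each plate.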
TSHR agonist = qHTS Assay for Agonists of the Thyroid Stimulating Hormone Receptor. Thyrotropin receptor (Homo sapiens), P16473. HEK293-CNG-TSHR cells (CNG channel as cAMP sensor), membrane potential dye, cAMP. Potency, µM (titrated, usually from 57.1 µM), inactives show at the highest dose activation, actives largely listed as activators. 73,000 tested, 0.48% active; active = well fitted activation curve of enough size with the parental cells flat; inconclusive = any curve in the parental cells; inactive = parental cells flat and receptor cells flat or falling; further: potency means the concentration at half of the fitted maximal effect; % of control where 0% means no effect; weak receptor curves with flat parental cells got no call and are not listed
Target sequence (P16473 whole entry, looked up): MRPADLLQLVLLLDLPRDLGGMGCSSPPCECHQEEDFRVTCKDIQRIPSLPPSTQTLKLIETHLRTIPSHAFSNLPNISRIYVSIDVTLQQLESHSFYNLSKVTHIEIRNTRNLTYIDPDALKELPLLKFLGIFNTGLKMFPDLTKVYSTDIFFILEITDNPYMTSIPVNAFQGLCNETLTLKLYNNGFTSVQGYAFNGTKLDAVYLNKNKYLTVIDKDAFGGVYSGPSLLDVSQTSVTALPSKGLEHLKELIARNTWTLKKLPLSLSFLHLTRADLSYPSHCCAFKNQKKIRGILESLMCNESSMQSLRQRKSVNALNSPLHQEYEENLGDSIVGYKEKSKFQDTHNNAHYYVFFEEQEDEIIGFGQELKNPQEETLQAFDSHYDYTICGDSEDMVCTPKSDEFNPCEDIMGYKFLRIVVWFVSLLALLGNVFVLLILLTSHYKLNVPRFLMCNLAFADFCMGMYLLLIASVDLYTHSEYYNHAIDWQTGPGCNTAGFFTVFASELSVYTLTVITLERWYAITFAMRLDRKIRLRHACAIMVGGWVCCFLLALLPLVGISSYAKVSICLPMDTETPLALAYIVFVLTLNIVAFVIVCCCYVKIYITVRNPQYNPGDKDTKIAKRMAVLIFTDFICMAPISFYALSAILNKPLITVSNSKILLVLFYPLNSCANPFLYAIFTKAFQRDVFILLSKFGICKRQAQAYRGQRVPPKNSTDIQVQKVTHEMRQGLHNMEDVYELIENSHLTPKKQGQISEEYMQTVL
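cAMP rise detected as CNG-channel membrane depolarization by fluorescent dye (emission 590 nm), 30 min after compound, following 60 min dye loading containing 100 uM RO 20-1724 at room temperature. Cells: TSHR/CNG HEK 293, with parental CNG HEK 293 as control.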
* marks the source's active call; other numbers are inactive results; i = inactive; ? = inconclusive; · = not tested or not shown; & = joins results of further samples; [ ] = remark or other dose. These rows are one share of the data; the hit share may differ from the screen's.

mol | A488 fluor | Resorufin autofl | AID923 | A647 fluor | TSHR agonist
Cc1ccc(N=Cc2c(O)n(C)c(=O)n(C)c2=O)nc1 | i | i | -1.2% | 2.1e-09 | ·
Cc1ccc(Cl)cc1-n1c(=O)cc(N2CCN(C(=O)c3ccco3)CC2)[nH]c1=O | i | i | -0.1% | 1.1e-09 | 0%
Cn1cccc1-c1nc2ccc(NC(=O)c3ccccc3)cc2[nH]1 | i | i | 0.7% | 2.1e-08 | 2%
Cc1cc(C(F)F)n2nc(C(=O)Nc3ccc(S(=O)(=O)N4CCCCCC4)cc3)nc2n1 | i | i | 0.9% | 2.3e-08 | ·
CCC(c1nnnn1CCc1ccccc1)N1CCN(c2ccc(OC)cc2)CC1 (stereo not drawn) | i | i | 1.4% | 4.7e-09 | ?
CCS(=O)(=O)n1nc(-c2ccccc2)nc1NCc1ccco1 | i | i | -0.6% | 5.9e-09 | 18%
COc1cccc(C2C3=C(CCCC3=O)Nc3nc4ccccc4n32)c1OC (stereo not drawn) | i | i | 1.7% | 9.8e-09 | -5%
OC[C@H](CCc1c[nH]c2ccccc12)c1c[nH]c2ccccc12 | i | i | -5.1%[11.5 µM] | 1e-09 | -11%[11.4 µM]
CCOC(=O)c1ccccc1NC(=O)CN(c1cccc(OC)c1)S(C)(=O)=O | · | · | 3.8% | · | 7%[11.4 µM]
COc1ccc(OCC(=O)N2CCN(C(=O)c3ccccc3)CC2)cc1 | · | · | 1.9% | · | 0%
COC(=O)c1ccc(NC(=O)c2cccc(OC)c2)cc1 | · | · | -1.0% | · | 26%
COC(=O)c1cn[nH]c1N | i | i | -0.5% | 4.6e-09 | ?
COCCn1c(COC)nc2ccccc21 | i | i | -0.4% | 7.6e-09 | 0%
COC(=O)c1ccc(NC(=O)CN2CCN(c3ccc(Cl)cc3)CC2)cc1 | · | · | -0.7% | · | ?
CN1C(=S)SC(/[N+]([O-])=C/c2cccnc2)C1(C)C (stereo not drawn) | i | i | 0.2% | 1.1e-08 | 9%
Cc1cc(C)c2ccc(N)nc2c1O | i | i | -0.2% | 1.6e-08 | ?
O=C(NCC1CCCO1)c1nn2c(c1Cl)NC(c1ccc(F)cc1)CC2C(F)(F)F (stereo not drawn) | i | i | -0.8% | 7.2e-09 | -2%
CNC(=O)C1=NCCCc2cc(OC)c(OC)cc21 | i | i | 2.5% | 1.9e-08 | -3%
O=C(Cn1cccc1)N1CCN(c2ccc(F)cc2)CC1 | · | · | 0.3% | · | 4%
C[N+](C)(C)CCCCCNCC12CC3CC(CC(C3)C1)C2 | · | · | -0.4% | · | -5%
Cc1nn(-c2ccccc2)c2c1C1(C(=O)N(C(C)C)c3ccccc31)C(C#N)=C(N)O2 (stereo not drawn) | i | i | -0.5% | 1e-09 | 9%
CN1CCN(S(=O)(=O)c2ccc(NC(=O)c3csc4ccccc34)cc2)CC1 | i | i | -1.6% | 1.3e-08 | -17%
NC(=O)c1c(NC(=O)CSc2nnc(-c3ccco3)n2-c2ccccc2)sc2c1CCC2 | i | i | 0.2% | 5.2e-09 | ?
COC(=O)/C=c1/s/c(=C(\C#N)C(=O)NCc2ccco2)n(-c2ccccc2)c1=O | i | i | · | 2.9e-08 | ·
C=CCn1c(SCCCC)nc(O)cc1=O | · | · | 2.5% | · | 25%
Cc1nn(-c2ccc(F)cc2)c(C)c1NS(=O)(=O)c1ccc(Cl)cc1 | i | i | -1.2% | 2.6e-09 | 15%
CCc1ccc(OCC(=O)N(C)C)c(Br)c1 | i | i | -3.3% | 4.9e-09 | 3%
O=C(c1ccc2c(c1)OCO2)N(c1ccc(Cl)cc1)C1C=CS(=O)(=O)C1 (stereo not drawn) | i | i | 0.6% | 3.1e-08 | 0%[11.4 µM]
O=C(Nc1ccc(Cl)c(C(F)(F)F)c1)N1CCCC(O)C1 (stereo not drawn) | i | i | -0.4% | 2.3e-08 | -2%
COc1cc(OC)c(C2SCCN2S(=O)(=O)c2ccc(F)cc2)cc1OC (stereo not drawn) | i | i | -0.3% | 3e-08 | 4%
O=C(NC1CCCC1)C(c1cccs1)N(CC1CCCO1)C(=O)Cc1cccs1 (stereo not drawn) | i | i | 0.4% | 6.3e-08 | ?
COC(=O)c1cc2occc2n1CC(=O)Nc1cc(OC)cc(OC)c1 | i | i | 0.6% | 4.5e-09 | -1%[11.4 µM]
Cn1c(Cn2cnc3ccccc32)nc2ccccc21 | i | i | · | ? | ·
Cc1noc(C)c1C(=O)N1CCc2ccccc21 | i | i | -0.7% | 4.1e-08 | 9%
CCN1CCN(c2cc(C)c3cc(NC(=O)c4ccncc4)ccc3n2)CC1 | · | · | 3.3% | · | -3%
O=C(CSc1nnc(CN2CCOCC2)n1-c1ccc(Cl)cc1)N1CCc2ccccc21 | i | i | 1.7% | 1.6e-08 | 1%
COc1ccccc1O | · | · | 3.5%&0.6%&4.5% | · | ?
Cc1ccccc1-c1cncnc1NCc1cccnc1 | i | i | -0.3% | 2.3e-09 | 4%
O=C(NC(=O)N1CCN(c2ccccc2F)CC1)c1ccccc1 | i | i | -1.1% | 1e-09 | -1%
CCCn1c(C)nc2c(N(CCOC)CCOC)nc(C)nc21 | · | · | 1.2% | · | 5%
CCCOC(=O)CSC1=C(C#N)C(c2ccc3c(c2)OCO3)CC(=O)N1 (stereo not drawn) | i | i | · | 3.2e-09 | ·
COc1ccc(-n2nnc3c(=O)n(CC(=O)N4CCCCC4)cnc32)cc1 | · | · | 2.0% | · | -1%[11.4 µM]
Cc1ccsc1C(=O)OCC(=O)N1CCOCC1 | i | i | 0.6% | 1e-09 | -10%
Cc1ccccc1Nc1nc(N)nc(COC(=O)c2cccn2C)n1 | i | i | -0.7% | 2.3e-08 | 11%[11.4 µM]
O=C(NCc1ccco1)C(C(=O)c1ccccc1)n1ccccc1=O (stereo not drawn) | i | i | -3.2% | 1e-09 | 2%
O=C(Nc1ccc2c(c1)OCCO2)C1CCCN(S(=O)(=O)Cc2ccccc2)C1 (stereo not drawn) | i | i | 0.4% | 1e-08 | 3%
COc1ccc(CNc2cc(-c3ccccc3C)ncn2)c(OC)c1 | i | i | 4.2% | 1e-09 | ?
CCn1c(SCC(=O)Nc2cc(C)on2)nnc1-c1cccnc1 | i | i | -0.2% | 3.1e-08 | -5%
O=C(CNS(=O)(=O)c1ccc(F)cc1)N1CCN(c2ccc(F)cc2)CC1 | i | i | 2.4% | 2.9e-08 | 0%
COc1cc(C2c3c(oc4c(C)cc(C)cc4c3=O)C(=O)N2Cc2cccnc2)ccc1O (stereo not drawn) | i | i | -2.4% | 2.9e-09 | 18%
Cc1ccsc1C(=O)N1CC(=O)Nc2ccccc21 | i | i | 1.5% | 1e-09 | -1%
CCC(c1nnnn1Cc1ccccc1)N1CCN(C(=O)c2ccco2)CC1 (stereo not drawn) | i | i | 0.1% | 4.3e-09 | ?
CC1(C)OC(=O)NC1=O | i | i | -2.0% | 2.5e-08 | 7%[25.6 µM]
CC(=O)Nc1ccc(N(C(=O)c2cnccn2)C(C(=O)NC2CCCCC2)c2ccc(O)cc2)cc1 (stereo not drawn) | i | i | 0.9% | 3.4e-08 | 1%
Cc1ccc(Oc2ccccc2)c(NC=O)c1 | i | i | -0.5% | 1.2e-09 | 2%
c1ccc2c[n+](Cc3ccnc4ccccc34)ccc2c1 | i | i | -3.9%[11.5 µM] | 2e-08 | 0%[11.4 µM]
O=C(NCCN1CCOCC1)c1ccccc1-c1ccccc1 | i | i | 1.6% | 1e-09 | -3%
COCCNC(=O)c1ccccc1NC(=O)CN(c1ccc2c(c1)OCO2)S(C)(=O)=O | i | i | -2.1% | 1.4e-08 | 3%
COc1ccccc1CN1CCCC2(CCN(C(=O)c3csnn3)CC2)C1 | i | i | 2.6% | 4.9e-09 | 21%
Cc1ccc(CN2C(=O)CCC2C(=O)NCCN2CCOCC2)cc1 (stereo not drawn) | i | i | 2.1% | 2.7e-09 | 2%

Remaining list, next part:
mol | A488 fluor | Resorufin autofl | AID923 | A647 fluor | TSHR agonist
COC(=O)c1c[nH]n2c(=O)cc(C)nc12 | i | i | 5.9% | 1.7e-08 | 1%
CCc1sc(NS(C)(=O)=O)nc1-c1ccccc1 | i | i | -0.4% | 7.1e-08 | 13%
CCOc1ccc2nc(-c3ccccc3)[nH]c2c1 | i | i | 0.9% | 8.7e-09 | ?
Cc1cc(NC(=O)c2cnn3c(C(F)F)cc(C4CC4)nc23)no1 | i | i | -2.7% | 4.4e-08 | 9%
O=C(Nc1ccccc1)NC1(C(=O)NCc2ccc3c(c2)OCO3)CCCCC1 | i | i | 0.5% | 1e-09 | 17%
COc1cc(-c2nnc(-c3ccncc3)o2)ccc1OCc1ccccc1 | i | i | 0.0% | 6.4e-09 | ·
COC(=O)[C@@]1(Cc2ccc(OC)cc2)[C@H]2c3cc(C(=O)N4CCCC4)n(CCN4CNCC4=O)c3C[C@H]2CN1C(=O)c1ccccc1 | · | · | -1.0% | · | 10%
COc1ccc2nc(C)cc(SCC(=O)O)c2c1 | i | i | -0.7% | 1e-09 | -3%
c1ccc(-c2noc(-c3cccc4ccccc34)n2)cc1 | i | i | 2.1% | 3.5e-08 | ·
O=C(CCSc1ccccc1)N1CCN(C(=O)c2ccco2)CC1 | i | i | -0.2% | 6.9e-09 | 3%
Cc1cnn(C(=S)NCCc2ccccc2)c1 | i | i | -3.2% | 9e-09 | ?
CC(C)(C)c1cnnn1-c1ccc(NC(=O)c2ccc3c(c2)OCO3)cc1 | i | i | -2.3% | 2.5e-09 | -24%
Clc1ccccc1NN(Cc1ccccn1)c1ccccc1Cl | i | i | -0.5%[11.5 µM] | 6e-09 | ?
Cc1c(C(=O)O)sc(=S)n1-c1ccccc1 | i | i | · | 2.6e-08 | ·
O=C(Cn1[nH]c(=O)c2ccccc2c1=O)OCC(=O)N1CCc2ccccc2C1 | i | i | 0.9% | 4.4e-09 | 15%
COc1cccc(C(=O)Nc2ncc3c(n2)CC(C)(C)CC3=O)c1 | i | i | -1.2% | 1e-09 | 2%
CCc1c(C)sc(NC(=O)CC#N)c1C#N | i | i | 5.5% | 1e-09 | -5%
CC(C)n1c(SCC(=O)N2CCCC2)nc2c1c(=O)n(C)c(=O)n2C | i | i | 0.6% | 3e-09 | -1%
FC(F)(F)c1cccc(-c2nc3nc(Cl)c(Cl)nc3[nH]2)c1 | i | i | 4.4%[11.5 µM] | 1e-08 | ?
Cc1oc(-c2ccc(Cl)cc2)nc1CN1CCC(C(=O)N2CCN(Cc3ccccc3)CC2)CC1 | · | · | -2.7% | · | 22%
CCSc1nc(O)c(C2OC(=O)c3c2ccc(OC)c3OC)c(=O)n1CC (stereo not drawn) | i | i | 1.4% | 1e-09 | 16%

Copied from the entries so far, three compounds:
mol | A488 fluor | Resorufin autofl | AID923 | A647 fluor | TSHR agonist
FC(F)(F)c1cccc(-c2nc3nc(Cl)c(Cl)nc3[nH]2)c1 | i | i | 4.4%[11.5 µM] | 1e-08 | ?
Cc1oc(-c2ccc(Cl)cc2)nc1CN1CCC(C(=O)N2CCN(Cc3ccccc3)CC2)CC1 | · | · | -2.7% | · | 22%
CCSc1nc(O)c(C2OC(=O)c3c2ccc(OC)c3OC)c(=O)n1CC (stereo not drawn) | i | i | 1.4% | 1e-09 | 16%

Source: PubChem
